Screens (PubChem)
Bm FixLJ act: activators of Burkholderia fixLJ two-component system; 29,000 tested, 0.3% active; AID 1918990; z-score (concentration not given with the values); B. multivorans fixK-promoter GFP reporter, 18 h; active compounds read high;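 active = replicate mean overnight rise in green fluorescent reporter signal, 3 or more SD over negative controls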;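 note: score is relative to vehicle wells of the plate; 300 nL library stock went into each well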
* marks the source's active call; other numbers are inactive results; & = joins results of further samples. Some of the compounds tested, so the mix of outcomes need not match the whole.

SMILES	Bm FixLJ act
CCc1ccc(NC(=O)C2CCN(c3nn4c(=O)cc(C)nc4s3)CC2)cc1	-2.54
COc1ccc(-n2c(=O)c3c4c(sc3n(Cc3ccc(C(C)(C)C)cc3)c2=O)CCC4)c(OC)c1	-2.02
CC(C)c1ccccc1NC(=O)CN1C(=O)c2cccc3cccc1c23	-0.5
Cc1ccccc1OCC(=O)Nc1ccc(S(=O)(=O)Nc2ncccn2)cc1	0.03
CCOC(=O)c1c(C)c(C(=O)NCCc2ccc(OC)cc2)c(C)n1C	-0.77
COc1ccc(-c2noc(CSc3nnc(C)n3-c3cccc(C)c3)n2)cc1	-0.27
Cc1ccc2nc(-c3ccncc3)c(Nc3ccc(C(C)C)cc3)n2c1	0.55
COc1ccc(C(=O)Nc2cc(C(F)(F)F)ccc2N2CCN(c3ccccc3)CC2)cc1OC	-0.74
Cc1cc(C)c2oc(-c3cccc(NC(=O)COc4ccccc4Cl)c3C)nc2c1	-2.53
CCn1cc(C(=O)O)c(=O)c2cc(F)c(N3CCNCC3)cc21	-2.62&-2.39
Cc1nc(N2C(=O)c3oc4ccccc4c(=O)c3C2c2cccc(OCCC(C)C)c2)sc1C (stereo not given)	-0.3
CCOC(=O)c1ccccc1NC(=O)NC(C)c1c(-n2cccc2)sc(C)c1C (stereo not given)	0.08
CCN(C(=O)c1coc(COc2cccc(OC)c2)n1)C1CCOCC1	0.66
CC(C)c1ccc(OCC(=O)Nc2cc(-c3ccccc3)no2)cc1	-0.61
COc1cccc(CNC(=O)CSc2c3c(nc4cc(Cl)ccc24)CCCC3)c1	-1.69
CCNc1nc2c(c(=O)[nH]c(=O)n2C)n1CC(O)COc1ccc(Cl)cc1Cl (stereo not given)	2.75
CCc1ccc2c(c1)c(=O)c(C(=O)c1ccc(C)cc1)cn2CC(=O)Nc1ccccc1C	-0.77
Cc1ccc(-c2nc3ccccc3n3c(-c4ccccc4)c4c(=O)n(C)c(=O)n(C)c4c23)cc1	-0.03
Cn1ccnc1C(=O)C1CCCN(Cc2ccc(C#CC(C)(C)O)s2)C1 (stereo not given)	-0.62
CSc1nccc(N2CCC(c3nccn3Cc3cccnc3)CC2)n1	0.27
Cc1nnc(SCC(=O)Nc2ccc(N(C)C)cc2)[nH]c1=O	-0.09
CC(=O)c1c(C)nn(CCC(=O)Nc2ccc(Oc3nn[nH]n3)cc2)c1C	-1.8
Cc1cccnc1CN(C)C(=O)c1cc(CC(C)C)nc(N)n1	-1.4
CCOc1ccc(C(=O)N2CCCC(c3nnc(CN(C)C)n3C)C2)cc1 (stereo not given)	-0.32
Cc1ccc(Nc2c(-c3cc(Br)ccc3F)nc3cc(C)ccn23)cc1	-1.11

Laid out differently: entries from further up.
> COc1ccc(C(=O)Nc2cc(C(F)(F)F)ccc2N2CCN(c3ccccc3)CC2)cc1OC
  Bm FixLJ act = -0.74

> Cc1cc(C)c2oc(-c3cccc(NC(=O)COc4ccccc4Cl)c3C)nc2c1
  Bm FixLJ act = -2.53

> CCn1cc(C(=O)O)c(=O)c2cc(F)c(N3CCNCC3)cc21
  Bm FixLJ act = -2.62&-2.39

Additional entries
SMILES	Bm FixLJ act
CCOc1ccc(-n2c(=O)c3c(C)c(C)sc3n(Cc3ccc(C(C)(C)C)cc3)c2=O)cc1	-0.18
COc1ccc(/C=C/c2nc(C#N)c(N3CCC(C)CC3)o2)cc1OC	0.89
O=C(CCCn1cncn1)NC(c1ccc2c(c1)CCO2)C1CC(O)C1 (stereo not given)	-0.09
CC(CN1c2ccccc2Sc2ccccc21)N(C)C (stereo not given)	-1.41&-1.45
CCOC(=O)c1ccc(NC(=O)C2=C(C)Nc3nc(SCc4ccc(Cl)cc4)nn3C2c2ccc(OC)cc2)cc1 (stereo not given)	-2.1
COC(=O)Cn1c(CN2CCN(c3ccc(OC)cc3)CC2)nc2c1c(=O)[nH]c(=O)n2C	0.07
O=C(CN1C(=O)CN=C(c2ccccc2)c2ccccc21)Nc1cccc(C(F)(F)F)c1	-0.16
CCCCOc1cccc(C2c3c(oc4ccccc4c3=O)C(=O)N2c2ccccn2)c1 (stereo not given)	-0.98
CN1CC[C@]2(C(=O)NCCOCCO)CCCN(C(=O)c3ccccn3)[C@@H]2C1	-1.02
CCC(CC)c1nn2c(=O)cc(COc3ccc(NC(=O)c4cccc(Cl)c4)cc3)nc2s1	-1.22
Cn1ncnc1CCn1cc(-c2ccccc2Cn2cccn2)nn1	-2.03
Cc1cc(C(=O)N2CCC(C(O)c3cccs3)CC2)cc(S(N)(=O)=O)c1C (stereo not given)	-0.71
COc1ccc(OC)c(-c2csc(-c3c(N)c(C(=O)c4ccc(Cl)cc4)n4ccccc34)n2)c1	-1.77
CCOc1cc(C(=O)Nc2cccc3cccnc23)cc(OCC)c1OCC	-0.54
Cc1ccc(-c2nnn3c2nc(NCCc2ccc(Cl)cc2)c2ccccc23)cc1	-1.52
CCN(c1ccccc1)S(=O)(=O)c1ccc(NC(=O)c2cc(=O)c3ccccc3o2)cc1	-0.64
COc1ccc(CCNC(=O)CCn2c(=O)c3ccccc3n(Cc3ccccc3)c2=O)cc1OC	-1.59
CCCN(c1ccc(C(C)C)cc1)S(=O)(=O)c1ccc2c(c1)oc(=O)n2CC(=O)OCC	-0.56
Cc1cc(CC2CN(C(=O)c3ccc(Cl)cn3)CC2O)n[nH]1 (stereo not given)	-0.92
COc1cc(OC)c(NC(=O)CCNS(=O)(=O)c2ccc3c(c2)oc(=O)n3C)cc1Cl	0.04
COC1CS(=O)(=O)CC1NC(=O)CCC(=O)c1ccccc1 (stereo not given)	-0.47
CNC(=O)C(C)N(C)C(=O)c1coc(COc2ccc3ccc(OC)cc3c2)n1 (stereo not given)	-1.13
Cc1ccccc1Nc1c(-c2ccsc2)nc2c(C)cccn12	0.96
CCCS(=O)(=O)c1c(S(=O)(=O)CCC)c2cc(CC)ccn2c1C(=O)c1ccc(Cl)cc1	-2.03
Cc1ccc2[nH]c(=O)cc(C(=O)N3CCC4OCc5cnnn5C4C3)c2c1 (stereo not given)	1.13

The listing continues.
SMILES	Bm FixLJ act
Cc1cccc(-n2c(-c3ccco3)nc3c(cnn3-c3ccc(F)cc3)c2=O)c1	-1.64
CC(=O)NCc1cc2n(n1)CCN(Cc1ccc(C)cc1F)C2	-1.98
CSc1cccc(NC(=O)CN2C(=O)COc3ccc(Cl)cc32)c1	-1.87
CCCS(=O)(=O)c1nc(S(=O)(=O)c2ccc(C)cc2)c(NCCCOC(C)C)s1	0.27
CCOc1ccc(C(=O)N(Cc2sccc2C)C2CCS(=O)(=O)C2)cc1 (stereo not given)	-1.9
CCCCOc1ccc(C(=O)Nc2cc(-c3ccc(C)cc3)no2)cc1	-2.16
CCOCCCN(Cc1ccco1)C(=O)c1cc2c(s1)-c1c(C)cccc1OC2	-0.03
CCOc1cc(CNCCSc2nnnn2C)ccc1OCc1ccc(Cl)cc1Cl	-5.49
CCOC(=O)c1c(NC(=O)CSc2cn(CCNC(=O)c3ccc(OC)cc3)c3ccccc23)sc2c1CCCC2	-0.46
N#Cc1c(-n2ncnc2-c2ccc(Br)cc2)sc2c1CCCCC2	1.13
Cn1ccnc1CN1CCC(c2nnc(CN3CCCCCC3)n2C)CC1	-1.87
Cc1ccc(C(=O)NCC2CCN(c3ncccn3)CC2)cc1	-1.49
CCCCN1C(=O)c2[nH]nc(-c3ccccc3O)c2C1c1cccc(OCc2ccccc2)c1 (stereo not given)	-1.03
CCOc1ccc(Nc2cc(C(=O)NCc3ccccc3Cl)c3ccccc3n2)cc1	-0.83
COc1ccccc1-c1nc(SCC(=O)c2ccc(Cl)cc2)n[nH]1	0.62
CC1CCCCN1CCCNC(=O)Cn1ncc2c3ccccc3n(C)c2c1=O (stereo not given)	-0.46
Cc1noc(C)c1-c1ccc(S(=O)(=O)N2CCC(c3ccn[nH]3)CC2)s1	-1.37
Cc1cc(NC(=O)C(C)C)cc(-c2nc3ncccc3o2)c1O	0.22
Cc1ccc(C)c(NC(=O)Cn2c(=O)n(CCCS(=O)(=O)C3CCCCC3)c(=O)c3ccccc32)c1	0.35
COc1ccc(NC(=O)c2c(C)oc3ccc(O)c(CN4CCC(C)CC4)c23)cc1	-1.43
Cc1c(Cl)cccc1N1CC(c2nc3ccccc3n2Cc2ccccc2F)CC1=O (stereo not given)	-0.87
CC(=O)[C@@]1(O)CC[C@H]2[C@@H]3CCC4=CC(=O)CC[C@]4(C)[C@H]3CC[C@@]21C	-2.26
Cc1ccc(C)c(CN2C(=O)c3ccccc3S(=O)(=O)c3ccc(C(=O)N4CCN(c5ccccc5F)CC4)cc32)c1	-0.69
COc1cc(Cl)c(C)cc1Nc1nc2ccccc2nc1NS(=O)(=O)c1ccccc1	3.41*
CC1CCN(Cc2c(O)ccc3c(=O)c(Oc4ccccc4Cl)c(C(F)(F)F)oc23)CC1	-0.46

Following part
SMILES	Bm FixLJ act
COc1ccccc1N1CCN(C(=O)c2cn(C)c3ccc(S(=O)(=O)N4CCOCC4)cc3c2=O)CC1	-1.97
COc1cc(CN(C(=O)c2ccc(Cl)cc2)C2CCS(=O)(=O)C2)cc(OC)c1OC (stereo not given)	0.29
Cc1cccc(C(=O)Nc2cc3c(cc2N2CCCCC2)n(C)c(=O)n3C)c1	-1.39
Cc1ccc(S(=O)Cc2ccc(C(=O)NC3CCCCCC3)o2)cc1 (stereo not given)	0.74
Cc1ccc(Nc2nc(C)c(NC(=O)c3ccc(C)cc3)c(Nc3ccc(C)cc3)n2)cc1	2.48
COc1ccc(CC(=O)NCCc2nc3sc(C)c(C)c3c(=O)[nH]2)cc1	-0.4
CCCn1cnnc1CNC(=O)c1csc2nc(-c3cccc(F)c3)cn12	-0.09
CN1C2CCC1CC(OC(=O)C(CO)c1ccccc1)C2 (stereo not given)	-0.22
COc1ccc(C(=O)NCCn2cc(SCc3cc(C)ccc3C)c3ccccc32)cc1	0.2
O=C(Nc1cccc2c(=O)cc(-c3nn[nH]n3)oc12)c1ccc(OCCCCc2ccccc2)cc1	-1.56
Cc1ccc2[nH]c(C(=O)NCCS(=O)(=O)N(C)C)c(C)c2c1	-4.09
COc1cc(C2c3c(-c4ccccc4O)n[nH]c3C(=O)N2Cc2ccncc2)ccc1O (stereo not given)	-1.07
Cc1ccccc1-c1nc(CN2CCCC(C(=O)NCc3ccc(Cl)cc3)C2)c(C)o1 (stereo not given)	-1.98
CNC(=O)c1cccnc1N1CCC(N2CCCC(C(=O)N3CCCC3)C2)CC1 (stereo not given)	-0.62
Cc1ccc2oc(C(=O)Nc3cccc(Cl)c3)cc(=O)c2c1	-0.28
CCOC(=O)c1cccc(NC(=O)CCCn2c(C)c3cnn(-c4ccccc4)c(=O)c3c2C)c1	-2.35
CCCC[N+]1(C)[C@@H]2CC(OC(=O)[C@H](CO)c3ccccc3)C[C@H]1[C@@H]1O[C@@H]12 (stereo not given in full)	-1.75
NC(N)=NC(=O)c1nc(Cl)c(N)nc1N	-1.55&-0.33
CC(C)NS(=O)(=O)c1cc(C(=O)O)cc(-c2cccc3ncccc23)c1	0.33
CCCCc1cc(=O)oc2cc(C)c3c(C)coc3c12	-0.46
Cc1sc2nc(CCN)nc(N(C)CCCN(C)C)c2c1C	0.1
CCOC(=O)c1ccc(N2C(=O)c3n[nH]c(-c4cccs4)c3C2c2ccc(C(C)(C)C)cc2)cc1 (stereo not given)	1.09
O=C(CCc1nc(-c2ccccc2)no1)NCc1noc(C2CCCO2)n1 (stereo not given)	-1.03
Cc1ccc(-c2nc(-c3cc4cccc(OCc5cccc(F)c5)c4oc3=O)no2)cc1	-0.62
O=C(CCc1cn[nH]c1)NCc1csc(-c2ncccn2)n1	-0.68

As a working copy, 4 of the compounds above:
SMILES	Bm FixLJ act
COc1cc(C2c3c(-c4ccccc4O)n[nH]c3C(=O)N2Cc2ccncc2)ccc1O (stereo not given)	-1.07
Cc1ccccc1-c1nc(CN2CCCC(C(=O)NCc3ccc(Cl)cc3)C2)c(C)o1 (stereo not given)	-1.98
CNC(=O)c1cccnc1N1CCC(N2CCCC(C(=O)N3CCCC3)C2)CC1 (stereo not given)	-0.62
Cc1ccc2oc(C(=O)Nc3cccc(Cl)c3)cc(=O)c2c1	-0.28

The main list resumes; the seven compounds before the break are reprinted first.
SMILES	Bm FixLJ act
CC(C)NS(=O)(=O)c1cc(C(=O)O)cc(-c2cccc3ncccc23)c1	0.33
CCCCc1cc(=O)oc2cc(C)c3c(C)coc3c12	-0.46
Cc1sc2nc(CCN)nc(N(C)CCCN(C)C)c2c1C	0.1
CCOC(=O)c1ccc(N2C(=O)c3n[nH]c(-c4cccs4)c3C2c2ccc(C(C)(C)C)cc2)cc1 (stereo not given)	1.09
O=C(CCc1nc(-c2ccccc2)no1)NCc1noc(C2CCCO2)n1 (stereo not given)	-1.03
Cc1ccc(-c2nc(-c3cc4cccc(OCc5cccc(F)c5)c4oc3=O)no2)cc1	-0.62
O=C(CCc1cn[nH]c1)NCc1csc(-c2ncccn2)n1	-0.68
Cc1nn(C(C)C)c(C)c1S(=O)(=O)NCc1csc(-c2cnccn2)n1	-4.88
COc1cc(C(c2c(C)[nH][nH]c2=O)c2c(C)[nH][nH]c2=O)ccc1OC(=O)c1ccccc1OC	0.53
CC1CCC(C(=O)NC(C(=O)OCC(=O)c2ccc(Br)cc2)C(C)C)CC1 (stereo not given)	-1.09
C[C@]12C=CC(=O)C=C1CCC1C2C(=O)C[C@@]2(C)C1CC[C@]2(O)C(=O)CO (stereo not given in full)	-1.05
CCn1cc(CN2CCC(CNC(=O)c3cc4ccccc4cn3)CC2)cc1C#N	0.67
Nc1nc(NCCN2CCC(CO)CC2)cc(C2CC(N)C2)n1 (stereo not given)	-0.32
O=C(CCc1nc(-c2ccco2)no1)NCc1noc(C2CC2)n1	0.94
Cc1ccc(C2CC(=O)Nc3cc4c(cc32)OCCO4)cc1 (stereo not given)	-0.43
CCOc1ccc(NC(=O)Cn2c(=O)n(CC(=O)NCCc3ccccc3)c(=O)c3sccc32)cc1	-0.33
COc1ccccc1C=CCN1CCC(c2cc(=O)[nH]c(C)n2)CC1	-0.44
CC(=O)N1CCc2c(nc(-c3ccccn3)nc2NCCC(C)(C)C)C1	0.31
CCc1ccc2oc(-c3ccc(NC(=O)c4cccc(Cl)c4Cl)cc3)nc2c1	0.43
CCOC(=O)N1CCc2c(sc3c2c(=O)n(CCc2ccccc2)c(=O)n3CC(=O)Nc2ccc(C)cc2)C1	0.25
COc1ccc2[nH]c(CNC(=O)CCc3nc4ccc(F)cc4[nH]3)cc2c1	-1.04
